PINK1 expr mod = PINK1 expression modulation | Potency, µM (series often up to 76.6 µM), for inactives: at the highest dose activation (PINK1 increase), hits mostly activators | actives 0.2% (n = 410,000) | PINK1 immunofluorescence, high-content cytometry, 24 h; active = well fitted activation curve with a large enough effect; inconclusive = small, poorly fitted or top-dose-only effect; inactive = flat fitted curve, though single readings scatter; cell line not stated here;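 note: potency is the fitted concentration of half-maximal effect; % of control where 0% means no effect; nearly all actives have a fitted effect of over 65% in size; a mitochondrial uncoupler was the plate control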
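PINK1 protein level read as immunofluorescence by microplate cytometer in a fixed, stained stable cell line after 24 h exposure to five compound concentrations, with CCCP as control.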
CtBP-E1A inh = blocks the CtBP interaction with E1A; AlphaScreen GST-E1A/His-CtBP binding, 1536-well; stronger effect = lower value; control for the full effect not named in the record; activity change, % (no concentration beside the values); actives 0.49% (n = 340,000); in the data active means activity change below about -65%; inconclusive means about -30% to -65%; inactive means above about -30%; note: % is set by controls: 0 for no effect and ±100 for the full control effect; compound concentration not given in the record
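AlphaScreen with 125 nM GST-E1A and 125 nM His-CtBP (5X stocks) in Tris pH 8.0, 300 mM NaCl, BSA, Tween 20, TCEP. Compounds preincubated 2 h at 37 deg C, then glutathione donor/nickel acceptor beads added for 1 h at 37 deg C in dark.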
D2 PAM = human D2 receptor positive allosteric modulation; DiscoveRx D2 beta-arrestin cells, luminescence, 90 min; 100% = 57 uM dopamine signal; actives 0.23% (n = 360,000); AID 624464; P14416; potentiation, % (no concentration beside the values); active = potentiation of 50% or more; inconclusive = 30% to 50%; inactive = 30% or less;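 note: compound concentration not given in the record; tested on top of an EC20 dose of dopamine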
Target sequence (P14416 whole entry, looked up): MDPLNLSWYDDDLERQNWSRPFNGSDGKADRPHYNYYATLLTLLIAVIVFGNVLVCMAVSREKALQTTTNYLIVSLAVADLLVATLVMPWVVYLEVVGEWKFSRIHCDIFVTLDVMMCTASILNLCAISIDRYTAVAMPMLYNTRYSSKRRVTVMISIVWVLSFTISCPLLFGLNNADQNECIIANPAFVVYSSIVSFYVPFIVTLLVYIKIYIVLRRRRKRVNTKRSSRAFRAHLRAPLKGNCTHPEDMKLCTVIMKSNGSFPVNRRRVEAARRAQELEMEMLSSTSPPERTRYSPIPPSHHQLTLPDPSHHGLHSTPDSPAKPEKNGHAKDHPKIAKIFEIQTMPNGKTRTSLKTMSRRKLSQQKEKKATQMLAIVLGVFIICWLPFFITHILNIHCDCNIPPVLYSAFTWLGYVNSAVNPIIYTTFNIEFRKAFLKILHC
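PathHunter beta-arrestin assay in DiscoveRx D2 cells. Compounds were added with an EC20 of dopamine (50 nM final) for 90 min at 37 deg C. Luminescence was read 1 h after detection reagent, with 57 uM dopamine as the EC100 control.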
TRPML1 agonist = human mucolipin-1 channel agonism. Q9GZU1. TRPML1-expressing cells, Ca2+ dye fluorescence, FDSS; host cell line not named in the record; reference of the full effect not given here. activation, % (no concentration beside the values). actives 0.12% (n = 410,000). AID 624414; in the data active = activation above about 50%; inconclusive = about 30% to 50%; inactive = below about 30%; note: 0% is about no effect; the text of the record puts the active cut at 80%
Target sequence (Q9GZU1 whole entry, looked up): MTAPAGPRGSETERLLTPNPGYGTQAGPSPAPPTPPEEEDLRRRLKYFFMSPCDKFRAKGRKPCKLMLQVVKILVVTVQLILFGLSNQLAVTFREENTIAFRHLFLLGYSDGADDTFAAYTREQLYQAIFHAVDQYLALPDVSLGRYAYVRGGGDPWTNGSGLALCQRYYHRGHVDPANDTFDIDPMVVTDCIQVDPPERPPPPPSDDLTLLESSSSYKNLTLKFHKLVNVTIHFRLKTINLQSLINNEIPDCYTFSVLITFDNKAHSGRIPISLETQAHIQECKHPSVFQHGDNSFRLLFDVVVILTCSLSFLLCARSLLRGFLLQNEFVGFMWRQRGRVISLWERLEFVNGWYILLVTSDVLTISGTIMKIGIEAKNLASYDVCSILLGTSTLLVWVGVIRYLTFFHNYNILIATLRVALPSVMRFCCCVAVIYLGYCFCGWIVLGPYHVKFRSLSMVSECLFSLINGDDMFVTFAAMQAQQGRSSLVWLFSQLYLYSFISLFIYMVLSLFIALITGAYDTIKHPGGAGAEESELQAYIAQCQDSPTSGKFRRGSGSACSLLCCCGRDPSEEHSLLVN
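Agonist activity was taken from a 110 s kinetic Ca2+ dye read on the FDSS after pinning compounds onto TRPML1-DL cells. The cells were seeded at 1,500/well with Tet inducer, incubated about 16 h, then dye-loaded at room temperature.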
D2 ag = activates the human D2 dopamine receptor | activation, % (concentration not given with the values) | DiscoveRx PathHunter D2 beta-arrestin, luminescence, 90 min; 100% = 57 uM dopamine signal | actives 0.084% (n = 360,000) | P14416; in the data active = activation above about 40%; inconclusive = about 15% to 40%; inactive = below about 15%; note: compound concentration not given in the record; the text of the record calls up to 30% inactive
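DiscoveRx PathHunter D2 beta-arrestin cells (2,100/well) attached overnight, then compound-stimulated 90 min at 37 C in HBSS/10 mM HEPES/0.1% Tween-20 buffer; beta-galactosidase complementation read by luminescence after 1 h at ambient temperature. Dopamine 57 uM final (EC100) as control.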
Six1-Eya2 inh = blocks human Six1 binding to Eya2; AlphaScreen GST-Six1/His-Eya2 binding, biochemical; stronger effect = lower value; control for the full effect not named in the record; actives 0.56% (n = 360,000); activity change, % (test concentration not listed); Q15475+O00167; AID 651725; in the data active = activity change below about -65%; inconclusive = about -30% to -65%; inactive = above about -30%; note: % is set by controls: 0 for no effect and ±100 for the full control effect; compound concentration not given in the record
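Six1/Eya2 binding was read as AlphaScreen signal after compounds were pinned into GST-Six1 plus His-tagged Eya2 (5X stock 250/500 nM) in pH 8.0 Tris/NaCl/TCEP buffer, beads added, then incubated 1 h, 37 C, dark.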
Active calls of the source: *; ? = inconclusive; · = not tested or not shown; [ ] = remark or other dose.

SMILES	PINK1 expr mod	CtBP-E1A inh	D2 PAM	TRPML1 agonist	D2 ag	Six1-Eya2 inh
Cc1ccc(S(=O)(=O)CC(CN2CCOCC2)N2CCOCC2)cc1 (configuration not stated)	0.0%	5	-13	1.5	-3.8	0
COc1cccc2cc(C(=O)NCc3ccco3)c(=O)oc12	0.3%	4	-11	-0.2	0.3	2
CC1CCCCC1NC(=O)Cn1c(=O)oc2cc(S(=O)(=O)N3CCCC3)ccc21 (configuration not stated)	0.1%	4	-5	-0.6	-5.7	4
C=CCNC(=O)C1CC(=O)N(c2ccc(OCC(=O)Nc3ccc(Cl)cc3)cc2)C1 (configuration not stated)	8.6%	-2	-7	-1.2	-3.2	7
COc1ccccc1CNC(=O)c1c(O)c2cc(OC)c(OC)cc2[nH]c1=O	-0.4%	-3	9	1.6	-1.2	-2
CCn1cc(S(=O)(=O)c2ccc(OC)cc2)c(=O)c2cc(OC)ccc21	0.8%	-14	-8	-0.5	-1.9	-6
C[C@H](NC(=O)[C@@H]1Cc2ccccc2CN1)C(=O)NCC1CCCO1 (some centres not stated)	-2.0%	4	-5	-0.2	-5.8	-1
COc1ncnc2c1oc1nc(C(C)C)c3c(c12)CC(C)(C)OC3	1.0%	0	14	-0.4	2.8	-1
CCOC(=O)c1ccc(CNC(=O)C(Cc2c[nH]c3ccccc23)NC(C)=O)o1 (configuration not stated)	3.4%[38.3 µM]	51	1	-0.2	-0.2	19
Cc1ccc(C(=O)NNC(=O)c2ccc3ccccc3c2O)cc1	-0.7%	-11	-4	-0.1	6.6	1
CN1C2C=C3C(C#N)=C(N)C(C#N)(C#N)[C@@H](c4cccc(F)c4)[C@@H]3C1CC2 (some centres not stated)	2.5%	-5	-12	0.2	-4.1	-5
CN(C)CCn1cnc2c(c1=N)C(c1ccccc1)c1ccc3ccccc3c1O2 (configuration not stated)	-1.3%	-2	-16	·	-2.7	1
COc1cc(NC(=O)c2ccc(Cl)cc2)c(Cl)cc1NC(=O)c1cccnc1	0.9%	9	-5	1.2	2.4	0
O=C(NC(=S)Nc1ccc2c(c1)OCCO2)c1ccccc1	14%[38.3 µM]	-20	-1	0.6	-0.3	-23
Cn1cc(SCC(=O)NC2CCCC2)c2ccccc21	-0.4%	7	-7	-0.2	1.8	11
CC1(C(=O)NS(=O)(=O)c2cccc(Cl)c2)CCN1C(=O)c1ccccc1 (configuration not stated)	2.3%	0	-7	-0.4	-5.2	8
CC(=O)c1ccc(N2CCN(C(=O)C3CCN(C(=O)Nc4ccccc4)CC3)CC2)cc1	-1.1%	1	5	2.1	3.5	-2
NC1=NC(=O)/C(=C/c2c(OS(=O)(=O)c3ccc(Cl)cc3)ccc3ccccc23)S1	13µM*	10	12	0.3	0.1	8
COC(=O)C1=C(C)N(C(C)C)C(=O)C1(NC(C)=O)C(F)(F)F (configuration not stated)	0.3%[38.3 µM]	11	3	-0.2	0.1	3
CC(C)[C@H](NC(=O)N1CCn2c1nc1ccccc12)C(=O)N[C@@H](C(=O)O)c1ccccc1	1.6%	-7	-2	-0.1	-5.4	2
CCN(c1ccccc1)S(=O)(=O)c1ccc(OC)c(NC(=O)CNC)c1	7.8%	1	-10	0.1	-2.3	7
O=S(=O)(c1ccc(N2CCOCC2)cc1)N1CCOCC1	-2.2%	3	1	2.5	-1.4	2
CCOC(=O)C1=C(COC(=O)Cc2ccc(Br)cc2)NC(=O)NC1C (configuration not stated)	-2.1%	0	8	1.6	5.4	1
CCC1Oc2ccccc2N(CC(=O)NC2CCCC2)C1=O (configuration not stated)	2.0%	-10	-9	-0.1	-4.1	0
Cc1nc2ccccc2n1CCOc1ccccc1	1.8%	-14	-9	-1.3	1.4	3
CCOc1ccc(NC(=O)CN(C)C(=O)c2csc3c2CCCC3)cc1OCC	1.4%	10	-16	0.7	0.6	-6
CC(C)CSC1=NSC2=NC(=O)/C(=C\c3cccs3)C(=N)N12	45µM*	-14	3	0.9	1.2	-7
COc1c(Cl)cc(Br)c(OC)c1C(=O)NC(=O)Nc1nc(C)cc(C)n1	3.0%	0	-1	1.7	-2.0	2
Cc1cc(=S)c2cccc(C)c2[nH]1	2.1%	-8	-24	0.7	-11	-6
C[C@@H]1CC=C[C@H]2[C@H]1C(=O)N(Cc1ccccc1)[C@H]2c1ccc2ccccc2c1Br	-1.3%	0	-49	-1.0	1.5	0
COc1ccc(F)cc1C(=O)C1CCCN(C(=O)Cc2c(C)noc2C)C1 (configuration not stated)	-0.2%	6	2	0.4	0.6	0
Cc1ccc(C(=O)N2CCC3(CC2)Oc2ccc(Cl)cc2C(=O)C32CC(c3ccc(Cl)cc3)=NO2)s1 (configuration not stated)	-1.5%	4	-10	2.1	-2.2	1
COc1cc(NC(=O)CN(C)S(=O)(=O)c2ccc3c(c2)CCC(=O)N3)cc(OC)c1	-0.7%	0	-9	-0.5	-5.7	0
COc1cccc(NC(=O)N(C)C[C@@H]2OCc3cn(nn3)CCCC(=O)N([C@H](C)CO)C[C@H]2C)c1	-1.8%	1	3	0.3	-2.7	-1
COc1ccc(CCc2nnc(CCC(=O)NCCc3ncccc3C)o2)cc1	-0.8%	5	-3	1.1	-1.3	5
Cc1cccc(-c2cc3nc4c(c(NCc5ccco5)n3n2)CCCC4)c1	·	-14	4	-0.3	-3.7	-20
CC(NC(=O)C1CCCN1S(=O)(=O)c1ccc2c(c1)n(C)c(=O)c(=O)n2C)c1ccccc1 (configuration not stated)	-2.2%	0	4	-0.6	1.1	3
Cc1occc1C(=O)NCCCc1ccccc1	-1.1%	20	11	-1.3	0.4	-16
O=C(Nc1nnc(CC(=O)N2CCOCC2)s1)C1COc2ccccc2O1 (configuration not stated)	1.4%	10	11	0.1	-2.1	8
Cc1ccccc1C(=O)c1c[nH]c(C(=O)NCc2cccs2)c1	-2.2%	6	-9	0.1	0.8	-3

Given in markdown: two of the compounds above
| compound | PINK1 expr mod | CtBP-E1A inh | D2 PAM | TRPML1 agonist | D2 ag | Six1-Eya2 inh |
| --- | --- | --- | --- | --- | --- | --- |
| Cc1nc2ccccc2n1CCOc1ccccc1 | 1.8% | -14 | -9 | -1.3 | 1.4 | 3 |
| CCOc1ccc(NC(=O)CN(C)C(=O)c2csc3c2CCCC3)cc1OCC | 1.4% | 10 | -16 | 0.7 | 0.6 | -6 |

(next part)
SMILES	PINK1 expr mod	CtBP-E1A inh	D2 PAM	TRPML1 agonist	D2 ag	Six1-Eya2 inh
CCSc1nnc(NC(=O)CSc2nnc(CNC(=O)c3cc(OC)c(OC)c(OC)c3)o2)s1	0.4%	-28	-25	-0.3	-0.3	?
CC(=O)CCN1C(=O)NC2(CCCc3ccccc32)C1=O (configuration not stated)	0.8%	13	-1	1.4	4.7	3
c1ccc(CSc2nnc3c(n2)OC(c2ccco2)Nc2ccccc2-3)cc1 (configuration not stated)	0.6%	?	-11	-1.0	-2.0	?
O=C(/C=C/c1ccccc1)Nc1ccc(S(=O)(=O)N2CCOCC2)cc1	-2.1%	7	-10	0.6	6.4	10
Cc1cc(-c2nn(C)c(=O)c3ccccc23)ccc1CNC(=O)NC1CCCCC1	4.3%	8	-5	0.2	1.1	4
O=C(CSc1nc(O)c(Cc2ccccc2)c(=O)[nH]1)c1ccccc1	3.4%	-13	-2	0.6	-2.3	-17
CCCC(CCC(=O)Nc1cc([N+](=O)[O-])ccc1O)C(=O)O (configuration not stated)	3.4%	-13	-6	1.2	-4.1	-11
O=C1CCC(=O)N1c1cccc(-c2nc3ccccc3o2)c1	-1.9%	0	-5	2.0	-2.1	3
CCc1ccc(-c2cc(C(=O)Nn3cnnc3)c3ccccc3n2)cc1	2.4%[38.3 µM]	4	-21	1.6	-2.1	-2
Cc1[nH]c2ccccc2c1C(=O)COC(=O)c1ccc2c(=O)n3c(nc2c1)CCC3	0.4%	-14	-10	1.2	1.2	-7
C[C@H]1COC(=O)[C@H](CC(=O)OC(C)(C)C)C/C=C\C[C@@H](CC(=O)N(CCO)Cc2ccccc2)C(=O)N1	-1.1%	6	-3	0.1	5.7	0
O=C(/C=C/c1ccco1)NCC1OCCc2ccccc21 (configuration not stated)	-1.4%	-11	-6	0.8	-3.1	?
N=c1n(CCO)c2ccccc2n1CCN1CCCCC1	-0.7%	6	-9	0.2	-2.9	8
COc1ccc(CCNC(=S)N2CCC(C(=O)c3ccc(F)cc3)CC2)cc1OC	-0.4%	·	-16	2.1	7.2	-9
COc1ccc(NC(=O)C2C(c3ccccc3)C2(Cl)Cl)cc1 (configuration not stated)	10%	7	-9	4.0	-1.9	8
CC(NC(=O)C1CCCN(S(=O)(=O)c2cccc3nonc23)C1)c1ccccc1 (configuration not stated)	-0.8%[38.3 µM]	0	-3	-0.5	1.6	0
CC1CC1C(=O)OCC(=O)NCc1ccc(Cl)cc1 (configuration not stated)	-0.4%	4	0	-0.3	-1.5	3
Cc1cc(C(=O)N2CCc3ccccc3C2)no1	-1.5%	-2	-3	0.6	-1.3	5
CCN(CC)C(=S)SCC(=O)c1ccc(F)cc1	-1.5%	22	-3	-0.3	-0.7	26
O=C(c1cnn(C(=O)c2ccco2)c1)c1ccccc1O	0.5%	·	11	-1.1	-1.4	-3
CCCOc1cc(N(CC)CC)ccc1/C=C(/C#N)c1nc2ccc(C)cc2[nH]1	16%	-8	-15	?	-9.9	-10
C/C(=N\Nc1nc(C(C)(C)C)cs1)c1ccc(O)cc1	-1.5%	·	-37	-0.5	-1.5	14
CN(Cc1ccc2c(c1)OCCO2)C(=O)CSc1ncnc2sccc12	1.5%	-1	10	-0.1	-0.4	-1
O=C(Cc1ccc([N+](=O)[O-])cc1)NC(C(=O)O)C(O)c1cccc([N+](=O)[O-])c1 (configuration not stated)	0.1%	4	-33	0.1	-3.0	6
COc1ccc2c(c1)[nH]c1c(=O)n(N)cnc12	4.3%	0	-14	1.1	6.8	22
C=CCN(CC=C)S(=O)(=O)c1ccc(C(=O)Nc2sc3c(c2C(N)=O)CCCCC3)cc1	10µM*	-10	4	0.4	-3.5	8
Nc1ccc(C(=O)OCc2csc(-c3ccccc3)n2)cc1[N+](=O)[O-]	13%	1	1	1.1	-1.1	-1
CCC(C)N=C1SCC(C)(/C=N/O)S1 (configuration not stated)	1.7%	11	2	-0.1	-3.6	-1
CC(=O)Nc1ccc(NC(=S)NC(=O)c2cc3ccccc3o2)cc1	7.5%	7	-1	0.0	0.7	4

Pulled by structure from the entries so far:
SMILES	PINK1 expr mod	CtBP-E1A inh	D2 PAM	TRPML1 agonist	D2 ag	Six1-Eya2 inh
C=CCN(CC=C)S(=O)(=O)c1ccc(C(=O)Nc2sc3c(c2C(N)=O)CCCCC3)cc1	10µM*	-10	4	0.4	-3.5	8
CC(=O)Nc1ccc(NC(=S)NC(=O)c2cc3ccccc3o2)cc1	7.5%	7	-1	0.0	0.7	4
CCCOc1cc(N(CC)CC)ccc1/C=C(/C#N)c1nc2ccc(C)cc2[nH]1	16%	-8	-15	?	-9.9	-10
C/C(=N\Nc1nc(C(C)(C)C)cs1)c1ccc(O)cc1	-1.5%	·	-37	-0.5	-1.5	14

From PubChem

An unsorted share of the library; overall some 1.3% were active at least once.
